Screens (PubChem BioAssay)
ClpP mod: qHTS Assay for Activators of ClpP; purified B. subtilis ClpP, FRET peptide cleavage, 20 min; Potency, µM (doses to about 57.5 µM), for inactives: at the top dose activity change, negative = active; hit rate 1.9% among 340,000; AID 651965, 2013; active = well fitted falling curve with a large enough effect; inconclusive = small, poorly fitted or top-dose-only effect; inactive = no such curve, though single readings can be large or run the other way; further: potency means the concentration at half of the fitted maximal effect; the source files actives as falling curves though it sought activators and does not explain the sign; nearly all actives have a fitted effect of over 65% in size; many hits overshoot -100%
Target sequence (P80244 whole entry, looked up): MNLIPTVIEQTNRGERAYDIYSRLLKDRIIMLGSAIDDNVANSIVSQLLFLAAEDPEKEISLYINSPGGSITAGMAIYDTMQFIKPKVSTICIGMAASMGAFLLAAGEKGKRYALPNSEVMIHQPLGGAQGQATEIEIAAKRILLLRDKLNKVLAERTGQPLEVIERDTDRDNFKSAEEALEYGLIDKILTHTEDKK
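Buffer: 100 mM Tris/HCl pH8, 100 mM KCl, 0.05% low protease BSA, 2.5% glycerol, 0.01% Tween-20. ClpP 10 microg/mL final; 20 min RT; delta FRET normalized to ADEP and DMSO controls.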
Sfp PPTase inh: qHTS Assay for Inhibitors of Bacillus subtilis Sfp phosphopantetheinyl transferase (PPTase); 4'-phosphopantetheinyl transferase ffp (Bacillus subtilis), Q9F4F7; Biochemical Sfp PPTase activity, qHTS; Potency, µM, without a hit: max response, negative = inhibition, actives largely listed as inhibitors; hit rate 3.5% among 310,000; AID 1490, 2009; active means well fitted inhibition curve with a large enough effect; inconclusive means small, poorly fitted or top-dose-only effect, or another doubt; inactive means no such curve, though single readings can be large or run the other way;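 further: the enzyme is Sfp with the accession as filed and its product quenches rhodamine fluorescence; potency means the concentration at half of the fitted maximal effect; 0% = enzyme reaction without inhibitor and -100% = no enzyme wells; top concentration of the series not given in the record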
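Fluorescence-quenching assay: 15 nM Sfp-PPTase preincubated 15 min at room temperature with compound, then 5 uM rhodamine-CoA and 12.5 uM BHQ-2-labelled YbbR peptide added. Fluorescence (ex 525/em 598 nm) read at start and after 30 min; difference gives rate.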
Menin MLL FP FL: qHTS Assay for Inhibitors Targeting the Menin-MLL Interaction in MLL Related Leukemias: Competition With Fluorescein Labeled MLL-derived Peptide | FP activity change, % at 61.4 µM | Fluorescence polarization, fluorescein-MLL peptide displacement from menin | 290,000 tested, under 10 active | AID 1766, 2009; inconclusive = falling polarisation curve, or a change in total fluorescence; inactive = total fluorescence flat and polarisation flat or rising; no compound was filed as active; the % refers to the polarisation; negative = inhibition;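 further: % of control where 0% means no effect; inhibitors lower the polarisation; unlabelled MLL peptide was the positive control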
PINK1 modulator: A Quantitative High throughput Screen to Identify Chemical Modulators of PINK1 Expression; Potency, µM (highest dose often 76.6 µM), without a hit: at the top dose activation (PINK1 increase), most hits filed as activators; hit rate 0.2% among 410,000; PINK1 immunofluorescence, high-content cytometry, 24 h; active = well fitted activation curve with a large enough effect; inconclusive = small, poorly fitted or top-dose-only effect; inactive = flat fitted curve, though single readings scatter; cell line not stated here;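 further: potency means the concentration at half of the fitted maximal effect; % of control where 0% means no effect; nearly all actives have a fitted effect of over 65% in size; a mitochondrial uncoupler was the plate control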
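PINK1 protein level read as immunofluorescence by microplate cytometer in a fixed, stained stable cell line after 24 h exposure to five compound concentrations, with CCCP as control.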
TRPML1 blocker: qHTS for Inhibitors of the Human Mucolipin Transient Receptor Potential 1 (TRPML1); activity change, negative = inhibition, % (concentration not given with the values); AID 624415, 2012; hit rate 0.02% among 390,000; Mucolipin-1 (Homo sapiens), Q9GZU1; TRPML1-inducible cells, Ca2+ dye fluorescence, FDSS; stronger effect = lower value; inhibition of EC80 agonist-evoked calcium signal; in the data active means activity change below about -50%; inconclusive means about -30% to -50%; inactive means above about -30%;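 further: stimulus is agonist 54-4 at its EC80 concentration; on the % scale 0 is the no-effect control and ±100 the full control effect; compound concentration not given in the record; the text of the record puts the active cut at -80%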
Target sequence (Q9GZU1 whole entry, looked up): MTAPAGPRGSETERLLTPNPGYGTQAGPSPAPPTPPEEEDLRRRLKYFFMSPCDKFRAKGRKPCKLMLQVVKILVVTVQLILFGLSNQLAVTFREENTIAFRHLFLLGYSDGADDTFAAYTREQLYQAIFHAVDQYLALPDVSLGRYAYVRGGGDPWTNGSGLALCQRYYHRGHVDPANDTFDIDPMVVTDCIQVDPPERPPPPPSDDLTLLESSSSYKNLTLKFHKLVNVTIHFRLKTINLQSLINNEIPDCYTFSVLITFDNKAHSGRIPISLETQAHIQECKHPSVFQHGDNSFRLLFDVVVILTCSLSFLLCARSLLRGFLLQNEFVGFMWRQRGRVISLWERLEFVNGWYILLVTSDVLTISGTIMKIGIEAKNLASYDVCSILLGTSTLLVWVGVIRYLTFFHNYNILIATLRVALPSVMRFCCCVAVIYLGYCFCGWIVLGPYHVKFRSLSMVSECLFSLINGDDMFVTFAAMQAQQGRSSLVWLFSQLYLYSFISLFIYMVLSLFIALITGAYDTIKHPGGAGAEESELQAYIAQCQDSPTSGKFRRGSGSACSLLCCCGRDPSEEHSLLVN
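TRPML1-DL cells, Tet-induced overnight (~16 h, 37 °C) at 1,500 cells/well, were loaded with Ca8 no-wash dye plus quencher for 45-90 min at room temperature. Compounds were pinned during FDSS kinetic reading; agonist 54-4 at EC80 (4 uM final) then added.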
TRPV1 potentiator: HTS Assay for Compounds that Act as Potentiators of the Vanilloid Receptor 1; hit rate 0.02% among 320,000; TRPV1-expressing cells, Fluo-8 calcium influx, capsaicin EC20 potentiation; host cell line not named in the record; control for the full effect not named in the record; Transient receptor potential cation channel subfamily V member 1 (Homo sapiens), Q8NER1; potentiation, % at 8.33 µM; AID 540277, 2011; active means potentiation above 80%; inconclusive means 30% to 80%; inactive means below 30%; further: 0% is about no effect
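Cells expressing TRPV1 were dye-loaded with Fluo-8 and read kinetically: 10 s baseline, 3 min after compound (agonist portion), then 2 min after EC20 capsaicin (allosteric enhancer portion). Calcium-bound dye fluorescence at 480/520 nm.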
TRPML1 agonist: qHTS for Agonists of the Human Mucolipin Transient Receptor Potential 1 (TRPML1) | Mucolipin-1 (Homo sapiens), Q9GZU1 | TRPML1-expressing cells, Ca2+ dye fluorescence, FDSS; host cell line not named in the record; reference of the full effect not given here | activation, % (concentration not given with the values) | hit rate 0.12% among 410,000; in the data active = activation above about 50%; inconclusive = about 30% to 50%; inactive = below about 30%; further: 0% is about no effect; the text of the record puts the active cut at 80%
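Tet-induced TRPML1-DL cells, 1,500 per well, cultured overnight, were loaded with a no-wash Ca2+ dye for 45–90 min. Calcium fluorescence was recorded on the FDSS for 110 s after compound addition, before the EC80 agonist (4 uM 54-4) was added.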
Numbers without * were called inactive; ? = inconclusive; . = no result given; [ ] = dose if it differs, or a comment.

Second line of a record: ClpP mod	PINK1 modulator	Menin MLL FP FL	Sfp PPTase inh	TRPV1 potentiator	TRPML1 blocker	TRPML1 agonist
Cc1nn2c(C)c(C(=O)N3CCN(c4ccccc4F)CC3)cnc2c1-c1ccc(F)cc1
    -0.5%	0.9%	.	.	.	12	1.3
COc1ccc(C(=O)CC(=O)c2ccccc2O)cc1
    .	5.6%	-0.4	12%	-6	9	-0.6
CCC(Cc1ccccc1)NC(=O)C1CCN(c2nn3c(=O)cc(C)nc3s2)CC1 (configuration not stated)
    -3.9%	-1.3%	2.6	17%	19	6	0.6
Cc1ccc2nc(-c3ccco3)c(Cc3cccc(F)c3)n2c1
    5.0%	-1.1%	.	.	.	.	0.9
COc1ccc(Cl)cc1S(=O)(=O)N1CCC(C(=O)NC2CCCC2)CC1
    0.4%	-0.5%	0.6	0%	5	-9	0.4
CCc1nc2c(OCc3ccccc3)cccn2c1N(C)C(=O)C(C)C
    -3.2%	2.9%	.	.	.	.	-0.7
Cc1nc2nc[nH]c2cc1Br
    0.6%	0.4%	2.6	6%	2	9	-0.3
CC(CNC(=O)c1ccc(NC2=NC3CS(=O)(=O)CC3S2)cc1)c1ccccc1 (configuration not stated)
    2.7%	0.5%	-3.0	20%	7	-8	-0.6
CCOc1ccc(S(=O)(=O)N2CCCC(C(=O)NCc3ccccn3)C2)cc1 (configuration not stated)
    .	0.4%	-1.9	9%	5	-10	0.2
Cc1ccc(NS(=O)(=O)c2ccc(OCC(=O)Nc3cccc([N+](=O)[O-])c3)c(C)c2)cc1
    -1.8%	5.2%[38.3 µM]	-1.2	14%	-3	-2	0.9
Cc1cccc2nc(-c3ccc(N(C)C)cc3)c(Nc3ccc4c(c3)OCO4)n12
    ?	2.0%	.	.	.	4	0.8
Cc1cc(-n2c(C)cc(C(=O)CSc3[nH]c(=O)cc(C(F)(F)F)c3C#N)c2C)no1
    -6.0%	0.2%	.	.	12	-8	1.5
COc1ccc(-c2nc(C)c(CCNS(=O)(=O)c3cc(Cl)ccc3Cl)s2)cc1
    4.0%	-1.4%	.	.	.	9	1.2
C[C@@H]1CN([C@@H](C)CO)C(=O)c2cccc(NS(C)(=O)=O)c2O[C@H]1CN(C)CC1CCCCC1
    -22%	-1.7%	.	.	.	-6	-0.6
O=c1c2sc3ccccc3c2n(Cc2cccc(C(F)(F)F)c2)c(=O)n1-c1ccccc1
    3.5%	0.4%	.	.	.	-12	-0.8
O=C(O)CC1C(=O)NCCN1CCCc1ccccc1 (configuration not stated)
    -0.9%	0.5%	3.2	11%	10	-23	-0.2
COc1ccccc1-n1c(SCC(=O)NC(C)(C)C)nnc1-c1ccco1
    1.6%	-2.0%[38.3 µM]	-1.9	2%	-6	12	0.6
CCCn1c(=O)c2ccccc2n2c(=S)[nH]nc12
    1.0%	3.1%	-16	79µM*	5	3	-0.3
COc1cc2c(cc1NC(=O)C(C)Oc1ccccc1)oc1ccccc12 (configuration not stated)
    4.2%	4.2%	.	.	.	0	0.2
NC(=O)C1CCN(c2oc(/C=C/c3ccccc3)nc2S(=O)(=O)c2ccccc2)CC1
    .	1.7%	-1.1	-16%	-9	7	0.9
CCO[C@H]1OC(C(=O)Nc2ccccc2)=C[C@@H](c2ccc(C(F)(F)F)cc2)[C@@H]1CCCO
    0.3%	17%	-1.6	13%	-13	7	0.0
Cc1cc(Br)ccc1OCC(=O)NNC(=O)C(=O)Nc1ccccc1
    .	-0.1%	3.6	1%	10	-18	3.1
CN(C(=O)COC(=O)C(C)(C)Oc1ccc(Cl)cc1)c1c(N)n(Cc2ccccc2)c(=O)[nH]c1=O
    -1.7%	6.0%	.	.	-7	-5	0.5
Cc1cc(C(=O)NN=Cc2ccc(OC(=O)c3ccco3)cc2)c(C)o1
    2.0%	-2.7%	.	.	.	41	0.8
Cc1ccccc1OCC(=O)N/N=C/c1ccc([N+](=O)[O-])o1
    -1.9%	?	3.3	7%	-6	8	0.7
O=C1CCC([N+](=O)[O-])C(c2ccc3c(c2)OCO3)N1 (configuration not stated)
    2.1%	1.2%	1.3	8%	-1	-3	-0.2
Cn1c(=O)c2cc(NC(=O)Nc3cccnc3)ccc2n1-c1ccc(C(C)(C)C)cc1
    4.3%	2.9%	.	.	.	.	-0.5
COc1ccccc1S(=O)(=O)c1c(C)cc(C)[nH]c1=O
    -9.8%	1.7%	-0.1	10%	3	4	0.1
NC(=S)Nc1ccc2c(c1)OCO2
    0.0%	0.2%	-0.2	10%	2	44	-0.4
COc1ccc(C(=O)N(C)c2c(C)n(C)n(-c3ccccc3)c2=O)cc1OC
    0.5%	1.6%	-2.4	5%	5	4	0.0
CCCCCCOC(=O)c1ccccc1NC(=O)/C=C/C(=O)O
    -12%	-0.8%	5.2	-26%	9	-4	-0.7
Oc1ccc2[nH]cnc2c1CN1CCCCC1
    -2.1%	0.0%	-0.4	-18%	-6	49	1.8
Cc1ccc(C(=O)NCCCNC(=O)COc2ccc(Cl)c(C)c2)cn1
    -1.9%	1.1%	.	.	-19	-2	0.3
Cc1cc(NS(=O)(=O)c2ccc(NC(=O)c3cnc4scc(C)n4c3=O)cc2)nc(C)n1
    -17%	-1.1%	-1.0	-14%	9	-4	0.1
COC(=O)[C@H](CC(C)C)NS(=O)(=O)c1ccc(F)cc1Br
    1.2%	2.3%	.	.	.	8	-0.2
CN(C)C(=O)c1c(NC(=O)c2ccco2)sc2c1CCCCC2
    1.3%	0.0%	-0.8	-5%	-15	10	-0.2
COc1ccccc1N1CCN(c2ccc(Cl)nn2)CC1
    .	-0.7%	0.9	12%	0	5	0.3
Cc1ccc(S(=O)(=O)/N=C(/c2ccccc2)N(C)C)c(C)c1
    .	-0.7%	5.2	3%	-7	-3	-0.5
COc1ccccc1Cc1c(-c2ccco2)nc2ccc(C)cn12
    4.9%	?	.	.	.	26	1.4
Clc1ccc(Oc2nc(N3CCOCC3)nc(N3CCOCC3)n2)cc1
    16%	5.6%	2.9	7%	-11	10	-0.6
COc1ccc(CSc2ncn[nH]2)cc1[N+](=O)[O-]
    -0.7%	2.2%	3.0	12%	-10	54	1.1
O=C(COc1ccc2ccccc2c1)NNC(=O)C(=O)Nc1ccccc1
    .	1.5%	-7.5	-8%	18	37	0.7
CC(C)(C)OC(=O)C[C@H]1C/C=C\C[C@@H](CC(=O)N(CCO)Cc2ccccc2)C(=O)N[C@@H](Cc2ccccc2)COC1=O
    0.8%	-0.7%	.	.	.	5	0.1
CC(Sc1nc2ccccc2s1)C(=O)Nc1nnc(C(C)C)s1 (configuration not stated)
    -0.6%	1.0%	0.5	?	7	10	1.4
O=C1C(=Cc2cn(-c3ccccc3)nc2-c2ccc(OCc3ccc(Cl)cc3)cc2)SC(=S)N1CCS(=O)(=O)O
    -3.3%	2.8%	.	.	.	24	11
O=C(NCc1nnc2c(C(F)(F)F)cc(Cl)cn12)c1ccc2c(c1)OCO2
    1.3%	0.0%	-7.4	10%	5	-2	0.9
Nc1nccnc1C(=O)OCC(=O)NCCc1ccc(Cl)cc1
    3.9%	3.6%	.	.	-30	-3	0.3
COc1ccc(-c2nc3ccccc3s2)cc1NC(=O)COc1cccc(C)c1
    4.0%	3.8%	.	.	0	35	1.5
O=C(Nc1ccccc1)OCCOc1ccccc1Br
    2.7%	1.7%	-4.9	26%	-7	-16	3.0
CCN(C(=O)COC(=O)c1c(-c2ccccc2)noc1C)C1CCS(=O)(=O)C1 (configuration not stated)
    -1.9%	-0.9%	0.8	11%	-1	-9	-0.6
CN1CCN(/N=C/c2c3ccccc3c(Cl)c3ccccc23)CC1
    0.0%	-0.9%	?	-20%	-10	6	3.2
COc1ccc2cc(C(c3nnnn3Cc3ccccc3)N3CCCCCC3)c(=O)[nH]c2c1 (configuration not stated)
    -13%	0.9%	-0.9	?	3	-7	-1.4
Cc1cccc(N2CCN(C(=O)c3cn(CC(C)C)c(=O)c4c3c3ccccc3n4C)CC2)c1C
    ?	0.1%	.	.	.	31	1.9
Cc1ccn2cc(-c3nonc3C)cc2c1
    1.4%	7.3%[38.3 µM]	?	?	-4	0	0.5
COCCn1ccc2c(OCC(=O)Nc3cccc(OC)c3)cccc2c1=O
    ?	-1.1%	.	.	.	5	-1.0
O=C(CSc1nn(-c2ccccc2)c(=S)s1)NC1CCS(=O)(=O)C1 (configuration not stated)
    -1.9%	-1.5%	2.5	18%	-3	4	-0.5
CCOC(=O)c1cnn2c(SC)ncnc12
    -3.5%	-0.4%	.	.	.	-2	-0.2
CCOC(=O)c1cnc2cc(-c3ccc(C)cc3)nn2c1-c1ccccc1
    -3.2%	3.3%	-0.2	-16%	5	31	-0.2
Cc1cc(C(F)(F)F)nn1Cc1n[nH]c(=S)n1Cc1ccccc1
    1.2%	.	-1.4	8%	8	-1	0.0
N/C(COc1ccccc1)=N\NC(=O)c1cccnc1Oc1ccccc1
    1.3%	-2.0%	-3.8	8%	?	-8	-0.9
